INS promoter inh: TRM-6 insulin promoter activity inhibition; inhibition, % at 2 µM; hit rate 0.9% among 130,000; TRM-6 cells (human fetal islet line), insulin promoter-eGFP reporter, imaging; reporter expression induced with tamoxifen; AID 1273;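 active = inhibition above the mean plus 3 SD, with well images judged a real hit on visual review, cut at about 60% in these data, passing the limit was not always enough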
RGS16-Gao: modulates binding between human RGS16 and Galphao; bead-based flow cytometry RGS16-Galphao binding, fluorescence; actives lie on both sides; binding response (% of control), % at 10 µM; hit rate 0.38% among 220,000; AID 1441;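 active = below 25% or above 175%, edge rows of some plates excepted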;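 note: Galphao activated by GDP with aluminum fluoride before binding; 100% = wells without compound and 0% = beads without RGS; some results beyond the cut were filed as inactive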
PKD1 kinase inh: inhibitors of human PKD1 kinase. inhibition, %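 (about 10 µM by stock and volumes)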. PKD1 kinase fluorescence polarization assay. Q15139. hit rate 0.056% among 200,000;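 active = inhibition of 50% or more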;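 note: controls were vehicle for no effect and a reference inhibitor for full effect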
Target sequence (Q15139 whole entry, looked up): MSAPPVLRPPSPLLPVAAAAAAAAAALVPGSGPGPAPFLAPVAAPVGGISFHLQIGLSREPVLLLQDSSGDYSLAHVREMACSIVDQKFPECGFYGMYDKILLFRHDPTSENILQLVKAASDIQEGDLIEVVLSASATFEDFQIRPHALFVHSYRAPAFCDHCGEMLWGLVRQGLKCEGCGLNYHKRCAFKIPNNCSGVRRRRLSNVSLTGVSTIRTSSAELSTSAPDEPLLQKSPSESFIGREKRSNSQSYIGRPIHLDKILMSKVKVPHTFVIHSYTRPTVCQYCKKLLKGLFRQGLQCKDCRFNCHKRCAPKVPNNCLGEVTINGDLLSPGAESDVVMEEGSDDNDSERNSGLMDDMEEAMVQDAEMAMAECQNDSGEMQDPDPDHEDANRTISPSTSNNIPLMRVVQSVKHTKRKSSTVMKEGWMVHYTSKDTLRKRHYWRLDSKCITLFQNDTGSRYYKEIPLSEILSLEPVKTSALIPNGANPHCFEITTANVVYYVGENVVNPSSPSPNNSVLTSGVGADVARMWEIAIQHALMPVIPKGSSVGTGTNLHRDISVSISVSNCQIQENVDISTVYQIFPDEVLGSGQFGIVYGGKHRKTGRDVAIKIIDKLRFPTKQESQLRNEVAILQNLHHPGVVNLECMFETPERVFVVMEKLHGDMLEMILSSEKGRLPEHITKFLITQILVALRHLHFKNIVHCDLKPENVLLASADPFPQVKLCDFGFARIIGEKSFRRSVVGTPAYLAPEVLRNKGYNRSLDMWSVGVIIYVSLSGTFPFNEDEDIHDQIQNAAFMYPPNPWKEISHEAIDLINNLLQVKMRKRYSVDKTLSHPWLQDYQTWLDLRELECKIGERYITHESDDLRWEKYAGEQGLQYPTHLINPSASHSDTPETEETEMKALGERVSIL
GALR2 ag: GALR2 (human) receptor agonism; activation, %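 (tested at 5 µM)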; GALR2-expressing cells, agonist activation read-out; AID 803; hit rate 0.48% among 140,000; O43603;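 active = above mean plus 3 SD of all compounds, about 5% in these data, not always enough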;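 note: 0% = vehicle buffer wells and 100% = reference agonist at full effect; tested in CHO reporter cells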
HSV augment: HSV replication enhancement | hit rate 0.005% among 220,000 | HSV replication augmentation in cells, fold increase | AID 1956 | maximum fold increase;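 active = peak rise of 1.5-fold or more in the series; tested in PC3 cells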;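 note: first round at 10 µM; read as green reporter fluorescence; hits show the peak of a series up to 25 µM; 1 = signal of infected wells without compound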
INS promoter inh cell count: further read-out of INS promoter inh, marked with its call; normalized cell count, %; measured here: cell count, toxicity; reference of the scale not given here;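 cells exposed to compound for 48 h; stained nuclei by imaging scaled within each plate; lower means fewer cells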
HSV augment primary fold: second read-out of HSV augment, no call of its own (marks repeat the call); fold increase; compound at 10 µM; measured here: primary screen fold increase 10 uM; tested in PC3 cells;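 GFP signal in the first replicate; 1 = infected wells without compound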
* hit, by the source's call; i = inactive; / = no result given. Random draw from the library; 1.3% or so of the library scored in one or more.

SMILES | HSV augment | HSV augment primary fold | RGS16-Gao | INS promoter inh | PKD1 kinase inh | GALR2 ag | INS promoter inh cell count
O=C(CCCCCNS(=O)(=O)c1ccc(Br)cc1)NCCN1CCOCC1 | i | 1 | 115 | / | -5 | -1.9 | /
O=C(CSc1ccsc1[N+](=O)[O-])N1CCN(c2ccccc2)CC1 | i | 0.82 | 102 | / | -7 | -1.0 | /
NC(=O)c1ccc[n+](Cc2ccccc2)c1 | i | 1.1 | 106 | / | -4 | 0.1 | /
COCCNC(=O)CSc1nc2ccccc2c(=O)n1CCC(=O)N1CCN(c2ccccc2)CC1 | i | 0.86 | 102 | 0 | 5 | / | 106
CCC(=O)N/C(N)=N/c1nc(C)c2cc(OC)ccc2n1 | i | 0.66 | 104 | 80* | 1 | -1.5 | 139*
COc1cccc(NC(=O)Cn2c(=O)oc3ccccc32)c1 | i | 0.94 | 100 | 36 | -3 | -1.5 | 133
Clc1ccccc1COc1ccc(/C=N/n2cnnc2)cc1 | i | 0.95 | 100 | 24 | 10 | -1.1 | 135
COc1ccc(/C(C)=N/NC(=O)c2ccc(N(C)C)cc2)cc1 | / | / | 101 | / | 3 | -2.6 | /
O=C(CN1C(=O)CCS(=O)(=O)c2ccccc21)NCc1ccc(F)cc1 | i | 0.93 | 74 | 33 | -7 | -1.5 | 108
Cc1ccc(S(=O)(=O)Nc2ccc(Br)cc2/C=N/n2cnnc2)cc1 | i | 0.68 | 97 | 18 | 11 | -1.1 | 77
Cc1ccccc1OC1C(=O)N(Cc2ccc3c(c2)OCO3)C1c1sccc1C (stereo unspecified) | i | 1.2 | 86 | -57 | -2 | -2.9 | 93
O=C(NCc1ccco1)c1ccc(-c2cccc(Cl)c2)o1 | i | 0.92 | 56 | / | -7 | / | /
Cc1cc(C)nc(SCC(=O)N/N=C/c2cccn2-c2cccc(C(F)(F)F)c2)n1 | i | 0.94 | 40 | -23 | -1 | -3.8 | 125
Cc1ccc(CC(=O)Nc2cccnc2)cc1 | i | 1.1 | 101 | / | 6 | / | /
CC(C)(C)c1ccc(C(=O)Oc2ccccc2CCC(=O)O)cc1 | i | 1.1 | 99 | / | / | / | /
CC1=NNC(=O)C1CC(=O)N/N=C(\C)c1cccs1 (stereo unspecified) | i | 0.97 | 94 | 0 | -2 | / | 96
CN(CCNC(=O)C1CCN(S(=O)(=O)c2cnc[nH]2)CC1)Cc1ccccc1 | i | 0.89 | 102 | / | 3 | -6.2 | /
CCCC(=O)NCc1ccncc1 | i | 0.84 | 100 | / | 6 | / | /
O=C(O)c1sccc1S(=O)(=O)N1CCN(c2ccc(C(F)(F)F)cn2)CC1 | i | 1 | 98 | / | / | / | /
COc1ccc(C(=O)C[n+]2cccc(C)c2C)cc1[N+](=O)[O-] | i | 1.1 | 103 | -107 | -6 | / | 101
CCOP(=O)(c1ccc(N(C)C)cc1)C(O)c1ccccc1 (stereo unspecified) | i | 0.9 | 105 | 22 | -12 | -1.9 | 95
Cc1ccc(C)c(NS(=O)(=O)c2cc(C(=O)Nc3ccccc3-c3ccccc3)ccc2Cl)c1 | i | 0.98 | 98 | -29 | -8 | -0.8 | 67
Cc1cnc(C(=O)Nc2ccc(-n3cnnn3)cc2)cn1 | i | 1.1 | 99 | -25 | -3 | -0.4 | 107
CCC(C)Sc1nnc(CSc2nc3nc(C)cc(C)n3n2)o1 (stereo unspecified) | i | 1 | 103 | / | 0 | 0.6 | /
CCN(CC)c1ccc(/C=N/NC(=O)Nc2ccccc2)cc1 | i | 0.97 | 102 | / | 0 | / | /
CCOc1ccccc1CNC(CC)CO (stereo unspecified) | i | 0.9 | 100 | -21 | -1 | / | 90
O=C(NCCC1=CCCCC1)C1CCN(S(=O)(=O)c2ccc(-n3cnnn3)cc2)CC1 | i | 0.97 | 99 | / | 1 | 0.2 | /
Cc1ccnc(N/N=C/c2ccco2)n1 | i | 1.1 | 99 | -21 | 6 | -3.7 | 126
Cc1ccc(N2C(=O)C3C4C=CC(CNC(=S)Nc5cccc(Cl)c5)(O4)C3C2=O)cc1 (stereo unspecified) | i | 1 | 84 | 35 | -1 | -0.5 | 74
COc1ccc(NC(=O)COC(=O)c2c(-c3ccccc3)noc2C)cc1 | i | 0.99 | 96 | 12 | 12 | -2.2 | 103
CCCc1nnc(-c2cc(OC)c(OC)c(OC)c2)o1 | i | 0.96 | 95 | -40 | -10 | -0.2 | 142
COc1cccc(C(=O)Nc2nc(-c3ccc4c(c3)OCO4)cs2)c1 | i | 0.91 | 99 | / | -4 | -2.4 | /
COCCn1c(SCc2nc(N)nc(Nc3ccccc3C)n2)nc2ccccc2c1=O | i | 0.91 | 99 | 37 | -7 | 1.5 | 35
COc1cc(=O)[nH]c(=O)n1CC(=O)c1ccccc1 | i | 0.95 | 109 | 36 | -8 | -3.3 | 117
C=C(C)Cn1c(CCNC(=O)C(C)C)nc2ccccc21 | i | 1.1 | 103 | 24 | 6 | -0.8 | 98
COc1cccc(C(=O)Nc2cc(C(=O)NCCc3ccccc3)ccc2Cl)c1 | i | 0.77 | 106 | 13 | -6 | -2.4 | 118
COc1ccc(N(CC(=O)NC2CCCC2)C(=O)Cn2nnc(-c3ccc(OC)c(OC)c3)n2)cc1 | i | 0.92 | 102 | / | 1 | / | /
Cc1ccc(S(=O)(=O)CCC(=O)Nc2ccc(F)cc2)cc1 | i | 0.95 | 101 | / | -6 | / | /
CCOc1ccc(NC(=O)c2nnn(CC(=O)Nc3ccccc3OC)c2N)cc1 | i | 1 | 84 | -42 | -13 | 0.4 | 179
O=C(Nc1ccc[n+](CC(=O)c2cccc3ccccc23)c1)c1ccccc1 | i | 0.71 | 99 | 48 | -6 | -0.6 | 72
COc1cnc(-c2ccccn2)nc1Oc1ccc(Cl)cc1 | i | 0.78 | 97 | / | -8 | -1.6 | /
CC1CN(Cc2cnc(Cl)s2)CC(C)O1 (stereo unspecified) | i | 1 | 94 | / | -1 | / | /
CCCn1nnc(NC(=O)Cc2ccccc2)n1 | i | 0.77 | 117 | 6 | -9 | -1.9 | 127
CCOC(=O)c1c(-c2ccccc2Cl)csc1NC(=O)CSc1nc(C)cc(=O)[nH]1 | i | 1 | 93 | 2 | -8 | 0.5 | 105
CCn1c(O)c(C(C#N)=C2N=c3ccccc3=N2)c2ccccc21 | i | 0.96 | 101 | 0 | -16 | -3.8 | 127
COc1ccc(-n2nnnc2SCC(=O)Nc2ccccc2N2CCOCC2)cc1 | i | 0.88 | 105 | / | -1 | / | /
O=C1CCCC(O)=C1C=NCCc1ccccc1 | i | 0.96 | 120 | / | -12 | 0.9 | /
CC1CN(C2=Nc3cccc4cccc2c34)CC(C)O1 (stereo unspecified) | i | 1.1 | 109 | / | 2 | / | /
O=c1c2cc(NC(=S)NCc3cccnc3)ccc2nc2n1CCCCC2 | i | 0.98 | 107 | / | 2 | / | /
Cc1cc(NC(=O)CN2CCOCC2)n(-c2nc3ccccc3s2)n1 | i | 0.96 | 99 | 6 | -2 | -1.0 | 78

(continued)
SMILES | HSV augment | HSV augment primary fold | RGS16-Gao | INS promoter inh | PKD1 kinase inh | GALR2 ag | INS promoter inh cell count
CC1CCN(S(=O)(=O)c2ccc3ncn(CC(=O)N(C)Cc4ccccc4)c(=O)c3c2)CC1 | i | 0.96 | 86 | / | 0 | -1.3 | /
Nc1nc2nonc2nc1N1CCCCC1 | i | 0.87 | 98 | 21 | -7 | -1.2 | 131
O=C(CCN1C(=O)c2ccccc2C1=O)C1=NN[C@@H]2C(=O)N(c3ccc4c(c3)OCO4)C(=O)[C@H]12 | i | 1.1 | 101 | / | / | / | /
CCOC(=O)C(C(=O)Nc1nccs1)C1CCCCC1 (stereo unspecified) | i | 0.96 | 98 | -27 | -9 | -1.4 | 96
COc1ccc(S(=O)(=O)NCC2CCC(C(=O)NCc3ccco3)CC2)cc1 (stereo unspecified) | i | 0.98 | 102 | / | 4 | -0.3 | /
Cc1nc(NC(=O)c2ccco2)sc1-c1csc(Nc2ccc(Cl)cc2Cl)n1 | i | 0.88 | 98 | 19 | -13 | -2.0 | 224
CCN(CC)S(=O)(=O)c1cccc(NC(=O)CN(C)Cc2cccc(OC)c2)c1 | i | 0.9 | 95 | / | / | / | /
O=C(CNC(=O)c1ccccc1)NCCc1nc2ccccc2[nH]1 | i | 0.96 | 91 | -12 | 4 | -2.5 | 106
CC(=O)c1cc(N2CCC(C(=O)O)CC2)ccc1[N+](=O)[O-] | i | 1.1 | 113 | -18 | -2 | / | 125
CCn1nc([N+](=O)[O-])c2c(-c3nc4ccccc4o3)c(N)n(CCCOC)c2c1=O | i | 0.52 | 98 | 43 | 3 | / | 105
Cc1cccc(N=C2NC(=O)CS2)c1 | i | 1 | 95 | 24 | -8 | 0.6 | 71
CCOC(=O)c1c(CN(CC)CC)oc2cc(Br)c(O)cc12 | i | 0.93 | 96 | / | -1 | -1.9 | /
CCCCOC(=O)Nc1nnc(C(C)C)s1 | i | 0.99 | 96 | 27 | -4 | / | 153
COc1ccc(CCNc2ccncn2)cc1OC | i | 1.1 | 105 | 15 | 0 | -1.1 | 84
CCOC(=O)c1ccc(NS(=O)(=O)c2ccc3[nH]c(=O)[nH]c3c2)cc1 | i | 0.85 | 88 | 62 | 3 | -5.1 | 90
Cc1oc(-c2ccccc2)cc1C(=O)Nc1ccccc1 | i | 0.88 | 102 | 7 | 0 | -3.5 | 80
CC(OC(=O)c1cccc(S(=O)(=O)Nc2cccc(C(F)(F)F)c2)c1)C(=O)Nc1ccc2c(c1)OCCO2 (stereo unspecified) | i | 0.91 | 95 | 45 | 1 | -1.1 | 150
CCOC(=O)N1CCN(C(=O)c2ccc(NS(=O)(=O)c3ccc(F)cc3)cc2)CC1 | i | 1 | 104 | / | 4 | / | /
CCCc1ccc(Oc2coc3cc(OCC(=O)Nc4ccccc4C)ccc3c2=O)cc1 | i | 0.88 | 93 | 58 | -5 | -1.9 | 100

Some of these compounds in order of their number in RGS16-Gao, high to low.
compound	HSV augment	HSV augment primary fold	RGS16-Gao	PKD1 kinase inh	GALR2 ag
COc1ccc(CCNc2ccncn2)cc1OC	i	1.1	105	0	-1.1
Cc1nc(NC(=O)c2ccco2)sc1-c1csc(Nc2ccc(Cl)cc2Cl)n1	i	0.88	98	-13	-2.0
CCN(CC)S(=O)(=O)c1cccc(NC(=O)CN(C)Cc2cccc(OC)c2)c1	i	0.9	95	/	/

In the list so far, these have an aryl methoxy group.
SMILES | HSV augment | HSV augment primary fold | RGS16-Gao | INS promoter inh | PKD1 kinase inh | GALR2 ag | INS promoter inh cell count
CCC(=O)N/C(N)=N/c1nc(C)c2cc(OC)ccc2n1 | i | 0.66 | 104 | 80* | 1 | -1.5 | 139*
COc1cccc(NC(=O)Cn2c(=O)oc3ccccc32)c1 | i | 0.94 | 100 | 36 | -3 | -1.5 | 133
COc1ccc(/C(C)=N/NC(=O)c2ccc(N(C)C)cc2)cc1 | / | / | 101 | / | 3 | -2.6 | /
COc1ccc(C(=O)C[n+]2cccc(C)c2C)cc1[N+](=O)[O-] | i | 1.1 | 103 | -107 | -6 | / | 101
COc1ccc(NC(=O)COC(=O)c2c(-c3ccccc3)noc2C)cc1 | i | 0.99 | 96 | 12 | 12 | -2.2 | 103
CCCc1nnc(-c2cc(OC)c(OC)c(OC)c2)o1 | i | 0.96 | 95 | -40 | -10 | -0.2 | 142
COc1cccc(C(=O)Nc2nc(-c3ccc4c(c3)OCO4)cs2)c1 | i | 0.91 | 99 | / | -4 | -2.4 | /
COc1cc(=O)[nH]c(=O)n1CC(=O)c1ccccc1 | i | 0.95 | 109 | 36 | -8 | -3.3 | 117
COc1cccc(C(=O)Nc2cc(C(=O)NCCc3ccccc3)ccc2Cl)c1 | i | 0.77 | 106 | 13 | -6 | -2.4 | 118
COc1ccc(N(CC(=O)NC2CCCC2)C(=O)Cn2nnc(-c3ccc(OC)c(OC)c3)n2)cc1 | i | 0.92 | 102 | / | 1 | / | /
CCOc1ccc(NC(=O)c2nnn(CC(=O)Nc3ccccc3OC)c2N)cc1 | i | 1 | 84 | -42 | -13 | 0.4 | 179
COc1cnc(-c2ccccn2)nc1Oc1ccc(Cl)cc1 | i | 0.78 | 97 | / | -8 | -1.6 | /
COc1ccc(-n2nnnc2SCC(=O)Nc2ccccc2N2CCOCC2)cc1 | i | 0.88 | 105 | / | -1 | / | /
COc1ccc(S(=O)(=O)NCC2CCC(C(=O)NCc3ccco3)CC2)cc1 (stereo unspecified) | i | 0.98 | 102 | / | 4 | -0.3 | /
CCN(CC)S(=O)(=O)c1cccc(NC(=O)CN(C)Cc2cccc(OC)c2)c1 | i | 0.9 | 95 | / | / | / | /
COc1ccc(CCNc2ccncn2)cc1OC | i | 1.1 | 105 | 15 | 0 | -1.1 | 84

Assay outcomes (PubChem)
